Screening data deposited in PubChem by ICCB-Longwood Screening Facility, Harvard Medical School.
Ab BasE inh – inhibitors of Acinetobacter baumannii siderophore enzyme BasE | purified BasE, fluorescence polarization binding displacement | inhibition, % (concentration not given with the values) | 84,000 compounds, 0.1% hits;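 active = both replicates above 25% with normal brightness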;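 note: 0% = negative plate control signal and 100% = positive plate control signal; stock transfer was 100 nL into about 30 µL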
KSHV LANA nucl – inhibitors of KSHV LANA binding to nucleosomes. FITC-LANA1-23 / chicken nucleosome fluorescence polarization; hits give low values. z-score (no concentration beside the values). 51,000 compounds, 0.3% hits;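 active = both repeat wells score below -2 in polarization z-score versus plate sample wells, excluding overly bright wells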;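 note: 100 nL library stock added to about 30 µL; numbers are from one replicate; some results filed as inactive read as strong as hits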
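test system = FITC-LANA peptide and chicken nucleosomes | amount = 240 nM purified chicken nucleosomes (480 nM peptide binding sites), final | reagent = 50 nM FITC-LANA1-23 probe | medium = TEN-BT buffer, pH 7.5 | doses = single compound addition by pin transfer, 100 nL per well | timing = 10–45 min, room temperature | detection = fluorescence polarization | repeats = duplicate plates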
An asterisk follows results filed as active; nt = no result given; & = joins results of further samples. Only part of the results is shown; rates above refer to the full screens.

SMILES	Ab BasE inh	KSHV LANA nucl
COc1cc(/C=C2\SC(=S)NC2=O)ccc1OCc1cccc2ccccc12	-4.5	nt
Cc1csc(=O)n1CCC(=O)OCc1cc(=O)n2cc(Br)ccc2n1	-5.1	nt
CN1C(=O)S/C(=C\c2ccc(I)cc2)C1=O	2.0	-0.27
O=C(c1ccc(Br)s1)N1CCCC1	0.5	0.35
N#C/C(=C/c1cn(Cc2ccc(C(=O)O)o2)c2ccccc12)c1ccc(F)cc1	9.2	-0.34
COCCNc1c(-c2ccc(OC)c(OC)c2)nc2ccc(Cl)cn12	0.3	1.6
Cc1cc(C(=O)N2CCN(C3c4ccccc4-c4ccccc43)CC2)no1	nt	-0.13
CSc1ncc(C(=O)NC(C)C)c(-c2ccccc2)n1	0.6	-0.69
CC1Cc2ccccc2N1C(=O)c1cc2n(n1)C(C(F)(F)F)CC(c1ccco1)N2 (configuration not stated)	-2.1	-0.74
COc1cc(/C=C/C(=O)C(C)(C)O)cc(OC)c1OC	-1.1	0.27
c1ccc(COn2nnc3ccccc32)c(COn2nnc3ccccc32)c1	4.2	nt
S=C(N/N=C\c1ccco1)Nc1ccccc1	6.1	-0.38
COc1ccc(Nc2cc(C(=O)NCCCN3CCN(C)CC3)c3ccccc3n2)cc1	0.8	0.44
CCOc1ccc2nc(SCC(=O)O)sc2c1	4.9	0.25
COc1ccc2c(CC(=O)OCc3cc(Cl)c4c(c3)OCO4)coc2c1	-1.4	nt
CCOC(=O)C1CCN(C(=O)COC(=O)c2ccc(-n3cnnn3)cc2)CC1	2.2	nt
COc1ccc(-c2cn3c(c2C)-c2ccc(C)n2CC3)cc1	-2.0	-0.12
Cc1cc(N2CCOCC2)nc(SCC(=O)NCc2ccco2)n1	1.9	-1.4
Cc1cc(NC(=O)CN2CCCCC2)no1	3.3	-1.1
CCCCN(Cc1ccco1)C(=O)c1noc2c1CCCC2	1.8	nt
N#C/C(=C\c1ccccc1Cl)S(=O)(=O)c1ccc(Cl)cc1	-0.3	nt
O=C(NC1CC2CCC1C2)c1ccc(CN2CCOCC2)cc1 (configuration not stated)	3.0	nt
O=C(c1ccc(S(=O)(=O)N2CCOCC2)cc1)N(Cc1ccccn1)c1nc2ccccc2s1	-0.9	-0.21
CCn1c(NC(C)=O)nc2ccccc21	1.9	-0.37
O=C(NCCc1ccc(Cl)cc1)C1CCC(=O)N1C1CCCCC1 (configuration not stated)	2.0	-1.5
CC(NC(=O)c1ccccc1)c1nnc(SCc2nc3ccccc3c(=O)[nH]2)n1C (configuration not stated)	-0.1	0.15
COc1ccc2c(c1)c(NC(C)=O)c(C(=O)O)n2C	0.4	-0.58
COc1ccc(S(=O)(=O)N2Cc3ccccc3CC2C(=O)N2CCCCC2)cc1 (configuration not stated)	0.7	nt
O=C(CCCSC1=NC(c2ccco2)CC(C(F)(F)F)N1)Nc1ccc(Cl)c(Cl)c1 (configuration not stated)	2.8	0.35
Cn1c(N)c(C(=O)CN2CCc3ccccc3C2)c(=O)n(C)c1=O	4.3	nt
Cc1nc2sc(C(=O)OCC(=O)NCc3ccco3)c(C)c2c(=O)[nH]1	0.5	nt
CCOc1ccc(CNc2nc3ccccc3n2C)cc1OC	-2.2	-0.43
CCN(C(=O)/C=C/c1cc(OC)c(OC)c(OC)c1)C1CCCCC1	-0.9	0.36
CN1CCN(CCCNc2nc(-c3ccccc3)no2)CC1	0.6	0.8
Cc1csc2nc(CSc3nnc(C(C)Oc4ccccc4F)o3)cc(=O)n12 (configuration not stated)	0.9	nt
CC(C)(C)c1ccc(CSc2n[nH]c(=O)[nH]c2=O)cc1	-1.2	-1
CCc1ccc(-c2nc(SCC(=O)NC(C)(C#N)C(C)C)n[nH]2)cc1 (configuration not stated)	-2.1	nt
COc1ccc2c(CC(=O)NC3CCCCCC3)coc2c1	1.7	nt
CC(C#N)(NC(=O)CSc1nnc(-c2ccc(Br)cc2)n1C1CCCCC1)C1CC1 (configuration not stated)	1.1	nt
CSC(=CC(=O)C(C)(C)C)SC	-0.8	0.23
CC(=O)N1CCN(CCN2C(=O)C3C4c5ccccc5C(c5ccccc54)C3C2=O)CC1 (configuration not stated)	1.0	0.059
O=C(CSc1nc2ccccc2c(=O)n1Cc1ccco1)N(c1ccccc1)c1ccccc1	-0.5	-0.12
Cc1ccc(C(=O)CC(C(=O)O)n2ccc(C)n2)cc1 (configuration not stated)	2.5	0.19
COc1ccccc1OCC(=O)Nc1cccc(C)n1	0.1	-0.032
CCc1ccc(OCc2nnc(SC(C)C(=O)OC)n2C)cc1 (configuration not stated)	0.4	-1
O=S1(=O)CCC(NC(=S)N2CCOCC2)C1 (configuration not stated)	3.7	-0.11
CN1CCN(C(=O)C(F)(F)C2(F)OC(F)(F)C(F)(F)C2(F)F)CC1 (configuration not stated)	0.4	-1.1
COC(=O)c1ccc2c(=O)[nH]c(COC(=O)c3sc4nc5n(c(=O)c4c3C)CCC5)nc2c1	-5.0	nt
CCOc1ccc(C2c3c(oc4ccc(C)cc4c3=O)C(=O)N2CCN(CC)CC)cc1OC (configuration not stated)	0.0	-0.0095
CSc1cccc(NC(=S)NC(C)(C)C)c1	-0.4	nt
O=C1CCCN1CCC1CCN(C(=O)Nc2ccccc2)CC1	2.0	-0.13
FC(F)(F)c1cc(Br)ccc1N=Cc1ccccc1	-1.0	nt
CCC(NC(=O)c1ccccc1NC(=O)c1ccco1)C(=O)NC1CCCCC1 (configuration not stated)	-3.5	0.032
O=C(CN1CCCCCC1)Nc1nncs1	-1.3	-0.48
CC(C)CNC(=O)C(C)Oc1ccccc1 (configuration not stated)	2.5	-0.088
O=C(NCCNCC(O)COc1ccc(O)cc1)N1CCOCC1 (configuration not stated)	1.2	0.11&-1.2
COc1ccc(C(=O)C(C)Sc2nnc(-c3cccc(C)c3)n2Cc2ccco2)c(OC)c1 (configuration not stated)	-1.4	nt
O=C(O)CCc1ccc(-c2ccc(F)cc2)n1NC(=O)c1ccco1	2.0	-0.0055
CN(C(=O)C1CCCCN1S(=O)(=O)c1ccccc1)c1ccccc1 (configuration not stated)	0.8	nt
N#CC(C#N)=Cc1ccc(-c2cccc(C(F)(F)F)c2)o1	2.7	1.3

Arranged by value in KSHV LANA nucl (smallest number first): 4 from the list above
SMILES,KSHV LANA nucl
CC(C)(C)c1ccc(CSc2n[nH]c(=O)[nH]c2=O)cc1,-1
COc1ccc2c(c1)c(NC(C)=O)c(C(=O)O)n2C,-0.58
O=C(c1ccc(Br)s1)N1CCCC1,0.35
COCCNc1c(-c2ccc(OC)c(OC)c2)nc2ccc(Cl)cn12,1.6

Returning to the listing, repeating the seven entries before the break.
SMILES	Ab BasE inh	KSHV LANA nucl
O=C(CN1CCCCCC1)Nc1nncs1	-1.3	-0.48
CC(C)CNC(=O)C(C)Oc1ccccc1 (configuration not stated)	2.5	-0.088
O=C(NCCNCC(O)COc1ccc(O)cc1)N1CCOCC1 (configuration not stated)	1.2	0.11&-1.2
COc1ccc(C(=O)C(C)Sc2nnc(-c3cccc(C)c3)n2Cc2ccco2)c(OC)c1 (configuration not stated)	-1.4	nt
O=C(O)CCc1ccc(-c2ccc(F)cc2)n1NC(=O)c1ccco1	2.0	-0.0055
CN(C(=O)C1CCCCN1S(=O)(=O)c1ccccc1)c1ccccc1 (configuration not stated)	0.8	nt
N#CC(C#N)=Cc1ccc(-c2cccc(C(F)(F)F)c2)o1	2.7	1.3
CCOc1ccc(C(=O)Nc2cc(C)nn2-c2nc3ccccc3n2Cc2ccc(C#N)cc2)cc1	-0.2	nt
CC1C/C(=C/c2ccsc2)C(=O)/C(=C/c2ccsc2)C1 (configuration not stated)	1.7	0.4
COc1ccccc1OC(=O)Nc1ccccc1	1.6	-0.39
CCOC(=O)c1s/c(=N\C(=S)NC(=O)CN2C(=O)CCC2=O)n(C)c1C	1.6	0.11
COC(=O)CCn1cnc(-c2ccccc2)c1-c1ccccc1	0.8	nt
COc1ccccc1C(=O)NC(=O)CSc1nncn1C(C)C	0.6	nt
CC1CCc2c(sc(NC(=O)CCN3CCOCC3)c2C#N)C1 (configuration not stated)	-1.5	nt
Cc1nn(-c2ccccc2)c2c1CC1(C(=O)c3ccccc3C1=O)C1CCCN21 (configuration not stated)	-0.5	nt
Cc1cc(-c2ccc(C(C)C)c(S(=O)(=O)N3CCN(c4ccccc4F)CC3)c2)on1	0.1	nt
CSc1cccc(C(=O)Nc2cc(C)on2)c1	-1.7	-0.3
CC(C)(C)NC(=S)Nc1cccc(Cl)c1	1.5	0.98
CN(C)S(=O)(=O)c1cccc(CSc2nnc(C(F)(F)F)n2C)c1	5.3	nt
O=C(Nc1ccccc1)OCc1cncs1	nt	0.33
OCc1cccn1-c1ccc(I)cc1	0.1	-0.37
Cc1ccc(C(=O)NC(C)C(C)(C)C)o1 (configuration not stated)	0.5	-0.68
O=S(=O)(c1ccc2c(c1)OCO2)N1CCOCC1	2.4	-0.49
O=Nc1c(-c2c(O)[nH]c3ccccc23)[nH]c2ccccc12	1.1	0.39
Cc1ccc2nc(NCCC(=O)O)nc(-c3ccccc3)c2c1	0.3	nt
Brc1ccccc1[C@@H]1Nc2ccccc2[C@@H]2C=CC[C@@H]21	2.4	nt
Cc1cc(Nc2ccc(F)cc2)nc(SCc2c(Cl)cccc2Cl)n1	1.5	nt
Nc1nc(CSCC(=O)NCc2ccco2)nc(Nc2ccccc2)n1	-0.7	nt
S=c1nc(-c2ccccc2)[nH]n1CN1CCc2ccccc2C1	0.2	nt
Cc1cc(C(=O)Cn2cnc3sccc3c2=O)c(C)n1CCc1ccc(Cl)cc1	-0.3	nt
CC1(C)Cc2c(c(=S)nc(-c3ccccc3)n2CCO)CO1	-1.1	-0.77
CCN(C(=O)c1cn(CC)c(=O)c2cc(OC)c(OC)cc12)c1cc(C)ccc1C	-1.4	0.61
CN(C)c1ccc(N=Cc2nc(-c3ccccc3)oc2OC(=O)c2ccccc2)cc1	9.7	nt
CCOC(=O)C1=C(CN2CCCc3ccccc32)NC(=O)NC1c1ccccc1 (configuration not stated)	0.3	-1.3
CSc1nc(C)cc(ON=C(C)C)n1	1.0	-0.47
CCCCn1c(=NC(C)=O)c(C#N)cc2c(=O)n3cccc(C)c3nc21	-0.8	nt
OCCn1c(SCCOc2ccccc2)nc2ccccc21	-2.2	0.49
O=C(CCN1C(=O)c2ccccc2S1(=O)=O)Nc1ccc2c3c(cccc13)CC2	-1.9	nt
CN(C)C(Cc1cccc(S(=O)(=O)N2CCOCC2)c1)C(=O)c1ccccc1 (configuration not stated)	-1.6	nt
CCC1(C)C(C#N)(C#N)C1(C#N)C#N	5.9	0.21
Brc1ccc(-c2cnc(/C=C/C=C/N3CCOCC3)s2)cc1	-3.0	nt
O/N=C\c1ccccc1Oc1ccc(Cl)c(F)c1	nt	0.019
OCC1CC2CCCC[N+]2(Cc2ccccc2)O1 (configuration not stated)	nt	0.2
COc1cccc2c1Oc1nc(-c3ccccc3)nc(SC(F)F)c1C2	0.7	0.98
CC1CCCC(NC(=O)c2ccccc2)C1C (configuration not stated)	-0.8	nt
CS(=O)(=O)N(CC(=O)Nc1cccnc1)c1ccc(Cl)cc1	-1.6	-0.16
Fc1ccc(N=Cc2cccnc2)cc1F	1.3	nt
CC1=CC(C)=N[N+]1(C)CC(O)COc1ccccc1 (configuration not stated)	1.2	nt
CC(C)N(Cc1ccccc1)S(=O)(=O)c1cccs1	nt	-0.32
O=C1CC(N2CCN(c3ccc(O)cc3)CC2)C(=O)N1c1ccc(Cl)c(C(F)(F)F)c1 (configuration not stated)	-0.3	nt
O=C1C=CC(=O)C(c2ccc(Cl)cc2)=C1	0.4	0.51
COc1cc(Cl)c(C(F)(F)F)cc1NC(=O)c1c(OC)cccc1OC	0.6	nt
Cc1ccc(N2C(=O)C3CN4CCCN4C3C2=O)cc1 (configuration not stated)	2.5	0.66
Cc1ccc(N=C2C(=O)N(CN(C)C)c3ccccc32)cc1	-3.0	1.3
CCOC(=O)N1CCC(NC(=O)c2snnc2C)CC1	0.2	nt
S=C(NCCc1ccc(Cl)cc1)NCc1ccco1	-0.9	1.8
COc1ccc(-c2cc3n(n2)CCc2nc4ccccc4n2-3)cc1	-1.2	nt
O=C(c1cc2ccccc2o1)N1CC=C(c2ccccc2)CC1	nt	-0.49
COc1cc(N)ccc1-n1c(C)ccc1C	-4.1	2.4
Cc1ccc(C)n1-c1ccon1	-4.3	nt
N#Cc1c(NC(=O)COCc2cc(-c3ccco3)on2)sc2c1CCCC2	-2.4	0.49
CC(C)Cc1ccc(C(C)NC(C)CC(N)=O)cc1 (configuration not stated)	-0.2	nt
CC12CC(C(C#N)=C(N)N1)c1ccccc1O2 (configuration not stated)	0.0	-0.68
CCOc1ccc(CCN2CNc3c(-c4cccc(Cl)c4)c(C)nn3C2)cc1	0.2	-0.091

Whole records, looked up by structure. Order of screens: Ab BasE inh, KSHV LANA nucl
O=C(O)CCc1ccc(-c2ccc(F)cc2)n1NC(=O)c1ccco1 is entered as 2.0, -0.0055
O=C(CCCSC1=NC(c2ccco2)CC(C(F)(F)F)N1)Nc1ccc(Cl)c(Cl)c1 (configuration not stated) is entered as 2.8, 0.35
CC1CCc2c(sc(NC(=O)CCN3CCOCC3)c2C#N)C1 (configuration not stated) is entered as -1.5, nt
O=C1CC(N2CCN(c3ccc(O)cc3)CC2)C(=O)N1c1ccc(Cl)c(C(F)(F)F)c1 (configuration not stated) is entered as -0.3, nt
